PINK1 expr mod = PINK1 expression modulation | hit rate 0.2% among 410,000 | AID 624263 | PINK1 immunofluorescence, high-content cytometry, 24 h | Potency, µM (series often up to 76.6 µM), without a hit: at the top dose activation (PINK1 increase), actives largely listed as activators; active = well fitted activation curve with a large enough effect; inconclusive = small, poorly fitted or top-dose-only effect; inactive = flat fitted curve, though single readings scatter; cell line not stated here;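 further: potency means the concentration at half of the fitted maximal effect; % of control where 0% means no effect; nearly all actives have a fitted effect of over 65% in size; a mitochondrial uncoupler was the plate control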
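Stable cell line treated 24 h with compounds at 5 concentrations (CCCP controls), then fixed and immunostained for PINK1 plus nuclear and cell stains; PINK1 immunofluorescence quantified by laser-scanning microplate cytometry.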
D2 potentiator = human D2 receptor positive allosteric modulation | P14416 | DiscoveRx D2 beta-arrestin cells, luminescence, 90 min; 100% = 57 uM dopamine signal | potentiation, % (test concentration not listed) | hit rate 0.23% among 360,000; active = potentiation of 50% or more; inconclusive = 30% to 50%; inactive = 30% or less;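 further: compound concentration not given in the record; tested on top of an EC20 dose of dopamine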
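D2 cells co-treated with compound plus 50 nM dopamine (EC20) for 90 min at 37 deg C to detect potentiation. Beta-arrestin recruitment was read as enzyme-fragment luminescence after 1 h at ambient temperature. Full response was set by 57 uM dopamine.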
Six1-Eya2 inh = blocks human Six1 binding to Eya2; AlphaScreen GST-Six1/His-Eya2 binding, biochemical; stronger effect = lower value; control for the full effect not named in the record; AID 651725; Q15475+O00167; hit rate 0.56% among 360,000; activity change, % (concentration not given with the values); in the data active = activity change below about -65%; inconclusive = about -30% to -65%; inactive = above about -30%; further: on the % scale 0 is the no-effect control and ±100 the full control effect
Target sequence (O00167 whole entry, looked up): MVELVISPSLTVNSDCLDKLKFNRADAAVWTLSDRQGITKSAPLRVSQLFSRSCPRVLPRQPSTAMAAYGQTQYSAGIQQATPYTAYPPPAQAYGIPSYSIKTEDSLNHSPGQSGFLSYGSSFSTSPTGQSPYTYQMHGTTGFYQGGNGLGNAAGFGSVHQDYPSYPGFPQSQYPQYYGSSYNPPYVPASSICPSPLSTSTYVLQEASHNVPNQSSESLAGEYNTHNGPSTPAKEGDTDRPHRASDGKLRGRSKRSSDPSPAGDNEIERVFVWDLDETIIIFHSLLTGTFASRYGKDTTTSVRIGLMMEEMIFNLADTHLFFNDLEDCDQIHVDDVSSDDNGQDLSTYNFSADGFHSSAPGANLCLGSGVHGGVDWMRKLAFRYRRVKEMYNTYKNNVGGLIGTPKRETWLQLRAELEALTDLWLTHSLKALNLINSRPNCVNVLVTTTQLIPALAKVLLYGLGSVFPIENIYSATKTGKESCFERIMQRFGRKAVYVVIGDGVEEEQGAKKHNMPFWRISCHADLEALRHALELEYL
Target sequence (Q15475 whole entry, looked up): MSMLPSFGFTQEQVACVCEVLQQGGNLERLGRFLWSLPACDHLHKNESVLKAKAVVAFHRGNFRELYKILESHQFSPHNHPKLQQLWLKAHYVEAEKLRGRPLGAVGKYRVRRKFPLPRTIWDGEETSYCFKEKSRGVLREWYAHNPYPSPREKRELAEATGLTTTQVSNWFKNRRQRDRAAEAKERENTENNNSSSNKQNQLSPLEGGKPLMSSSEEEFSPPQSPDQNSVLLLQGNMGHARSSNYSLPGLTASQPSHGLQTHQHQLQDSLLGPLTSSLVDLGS
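GST-Six1 + His-Eya2 (5X stock: 250/500 nM); Tris pH 8.0, 300 mM NaCl, 0.05% BSA, 0.02% Tween 20; GSH donor/Ni acceptor beads; 1 h 37 °C dark; AlphaScreen readout.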
TRPV1 PAM = potentiators of human vanilloid receptor 1 (TRPV1). hit rate 0.02% among 320,000. AID 540277. potentiation, % at 8.33 µM. Q8NER1. TRPV1-expressing cells, Fluo-8 calcium influx, capsaicin EC20 potentiation; host cell line not named in the record; control for the full effect not named in the record; active means potentiation above 80%; inconclusive means 30% to 80%; inactive means below 30%; further: 0% is about no effect
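Cells expressing TRPV1 were dye-loaded with Fluo-8 and read kinetically: 10 s baseline, 3 min after compound (agonist portion), then 2 min after EC20 capsaicin (allosteric enhancer portion). Calcium-bound dye fluorescence at 480/520 nm.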
Sfp inh = Sfp phosphopantetheinyl transferase inhibition; Q9F4F7; Potency, µM, for inactives: max response, negative = inhibition, hits mostly inhibitors; Biochemical Sfp PPTase activity, qHTS; hit rate 3.5% among 310,000; active means well fitted inhibition curve with a large enough effect; inconclusive means small, poorly fitted or top-dose-only effect, or another doubt; inactive means no such curve, though single readings can be large or run the other way;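 further: the enzyme is Sfp with the accession as filed and its product quenches rhodamine fluorescence; potency means the concentration at half of the fitted maximal effect; 0% = enzyme reaction without inhibitor and -100% = no enzyme wells; top concentration of the series not given in the record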
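Buffer: 50 mM Hepes-Na pH 7.6, 10 mM MgCl2, 0.01% Nonidet P-40, 0.01% BSA. Enzyme 15 nM, pre-exposed to compound 15 min; substrates then added and fluorescence change tracked over 30 min.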
D2 agonist = activates the human D2 dopamine receptor; P14416; DiscoveRx PathHunter D2 beta-arrestin, luminescence, 90 min; 100% = 57 uM dopamine signal; activation, % (no concentration beside the values); hit rate 0.084% among 360,000; AID 624465; in the data active = activation above about 40%; inconclusive = about 15% to 40%; inactive = below about 15%; further: compound concentration not given in the record; the text of the record calls up to 30% inactive
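DiscoveRx PathHunter D2 beta-arrestin cells (2,100/well) attached overnight, then compound-stimulated 90 min at 37 C in HBSS/10 mM HEPES/0.1% Tween-20 buffer; beta-galactosidase complementation read by luminescence after 1 h at ambient temperature. Dopamine 57 uM final (EC100) as control.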
CtBP-E1A inh = blocks the CtBP interaction with E1A; AlphaScreen GST-E1A/His-CtBP binding, 1536-well; stronger effect = lower value; control for the full effect not named in the record; hit rate 0.49% among 340,000; activity change, % (test concentration not listed); in the data active means activity change below about -65%; inconclusive means about -30% to -65%; inactive means above about -30%; further: on the % scale 0 is the no-effect control and ±100 the full control effect; compound concentration not given in the record
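Homogeneous bead-based format: GST-tagged E1A captured on glutathione donor beads, His-tagged CtBP on nickel acceptor beads; compounds precede bead addition by 2 h at 37 °C.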
An asterisk follows results filed as active; ? = inconclusive; nt = not tested or not shown; [ ] = another dose, or the depositor's remark.

SMILES	PINK1 expr mod	D2 potentiator	Six1-Eya2 inh	TRPV1 PAM	Sfp inh	D2 agonist	CtBP-E1A inh
COc1ccc(-c2cc(C(=O)Nc3ccc(C(N)=O)cc3)c3ccccc3n2)cc1OC	6.0%	6	-6	-2	0%	-1.7	-1
COc1ccc(COC(=O)C2=C(C)NC(=O)NC2c2cccc(Br)c2)cc1 (centres undefined)	-0.1%	?	-10	5	-1%	13	3
C[C@H]1CN([C@@H](C)CO)C(=O)CCCn2nncc2CO[C@H]1CN(C)C(=O)Nc1ccccc1	-0.5%	-4	11	nt	nt	-0.3	0
Cc1cc(Cl)ccc1OCCCC(=O)Nc1cc(S(=O)(=O)N2CCOCC2)ccc1N1CCOCC1	-0.3%	-16	23	nt	nt	-3.2	nt
COc1ccc(NC(=O)C2CCCN(S(=O)(=O)c3cnc[nH]3)C2)cc1 (centres undefined)	-0.1%	-8	-7	5	-10%	-5.2	-2
CN(CC(=O)Nc1ccccc1Cl)C(=O)c1ccccc1SCC(=O)N1CCCC1	1.6%	-9	3	4	nt	-0.6	0
COC1OCC(O)C(NC(=O)N(C)N=O)C1O (centres undefined)	2.5%	0	6	nt	nt	-1.0	10
COc1cccc(C(=O)OCC(=O)NCc2ccc3c(c2)OCO3)c1OC	-0.4%	-15	14	nt	nt	-1.5	-13
COc1ccc(/C=N/n2c(=O)[nH]c3c([nH]c4ccc(C)cc43)c2=O)cc1CN1CCOCC1	?	-1	-13	9	24%	2.0	-19
CCC(Sc1nc2ccsc2c(=O)n1Cc1ccc(C(=O)O)cc1)C(=O)Nc1cc(Cl)ccc1C (centres undefined)	2.8%	-1	-2	nt	nt	0.3	4
CCn1c2ccccc2c2cc(C#N)c(N)nc21	1.7%	-3	0	nt	nt	-3.4	1
C[C@@]12CC[C@H]3OC(=O)C=C3C1CC[C@@]13CC(CCC12)[C@](CO)(O[C@H]1O[C@H](CO)[C@@H](O)[C@H](O)[C@H]1O)C3 (some centres undefined)	0.6%	-10	1	6	nt	-3.8	6
COc1cc(/C=C(\C#N)c2nn(CCO)c(N)c2C#N)cc(OC)c1OC	3.9%	3	-9	3	18%	8.8	-7
COc1ccc(CC(=O)Nc2ccc(S(=O)(=O)NC(C)C)cc2)cc1	7.0%[38.3 µM]	-4	1	3	14%	2.5	-4
Cc1ccc(S(=O)(=O)Nc2ccccc2F)cc1C(=O)NCc1ccco1	-1.2%	-3	-1	-3	nt	-2.8	-5
CC(=O)N1c2ccc(S(=O)(=O)N3CCC(C(=O)Nc4ccccn4)CC3)cc2CC1C (centres undefined)	2.3%	0	-1	8	26%	2.0	2
Cc1cccc(OCC(=O)Nc2ccc(NC(=O)c3ccco3)cc2)c1	16%	-2	-3	-10	16%	3.5	1
CCOC(=O)CCC(=O)N1CCNC(=O)C1	2.4%	-2	2	10	4%	-0.2	3
O=C(Nc1ccc2c(c1)OCO2)c1cc2n(n1)C(C(F)(F)F)CC(c1ccccc1)N2 (centres undefined)	8.2%[38.3 µM]	-3	2	0	0%	0.4	-6
C=CCn1c(SCC(=O)Nc2cc(NC(C)=O)ccc2OC)nnc1-c1ccccn1	-1.9%	0	-6	-3	11%	0.1	-1
CCCCn1c(N)c(N(CCC(C)C)C(=O)C2CC(=O)N(c3ccc(OC)cc3OC)C2)c(=O)[nH]c1=O (centres undefined)	0.0%	-6	0	23	nt	0.6	2
Cc1ccc(C(=O)Cc2cc3ccccc3oc2=O)c(C)c1	0.9%	-12	5	-18	13%	-0.9	nt
CCO[C@H]1OC(C(=O)N2CCOCC2)=C[C@@H](c2ccccc2)[C@@H]1CCCO	0.3%	1	6	-2	7%	-4.7	7
CN(C(=O)COC(=O)c1ccc(Br)o1)c1c(N)n(Cc2ccccc2)c(=O)[nH]c1=O	1.5%	-12	5	18	nt	-2.0	4
CC(=O)Nc1ccc(S(=O)(=O)N2CCN(CCN3CCOCC3)CC2)cc1Cl	0.8%	-10	2	-2	1%	-2.5	-2

Single entries from above:
Reading of Cc1cc(Cl)ccc1OCCCC(=O)Nc1cc(S(=O)(=O)N2CCOCC2)ccc1N1CCOCC1 in D2 agonist: -3.2
Reading of Cc1ccc(C(=O)Cc2cc3ccccc3oc2=O)c(C)c1 in TRPV1 PAM: -18

Following part
SMILES	PINK1 expr mod	D2 potentiator	Six1-Eya2 inh	TRPV1 PAM	Sfp inh	D2 agonist	CtBP-E1A inh
CCOC(=O)c1c(C)[nH]c(C)c1S(=O)(=O)NCCc1cccs1	0.3%	-1	7	-6	11%	5.1	nt
O=C(O)c1nn2cc(CCO)cnc2c1Cl	0.1%	-5	4	-3	1%	0.7	0
CCCCNC(=O)c1cccc2c(=O)c(C)c(-c3ccccc3)oc12	3.4%	-26	7	-5	24%	-4.0	3
CS(=O)(=O)c1ccc(Cl)c(NC(=O)COC(=O)CNC(=O)c2ccccc2)c1	-1.1%	-12	-4	2	17%	-19	-2
CC(Sc1nnc(-c2ccccc2)c(-c2ccccc2)n1)C(=O)Nc1ncc(Cl)cc1Cl (centres undefined)	0.4%	9	-21	-13	-5%	0.9	-16
O=C(CSc1ccc(F)cc1)N1CCN(S(=O)(=O)c2ccccc2)CC1	1.0%	4	-1	-19	-2%	2.5	nt
CC/C(=N\NC(=O)c1ccc2c(c1)OCO2)c1ccccc1	3.4%	-8	1	-9	11%	-1.6	1
CCn1cc(C2=NOC(C(=O)Nc3cc(C)nn3-c3ccccc3)C2)c(C)n1 (centres undefined)	9.1%[38.3 µM]	-7	1	8	0%	-3.2	-3
C/C(=N\NC(=O)c1ccccc1-n1cccc1)c1ccccn1	0.6%	-23	-92*	nt	nt	-2.7	?
O=C(O)c1cc(N/N=C/C(Cl)=C/c2ccccc2)ccc1Cl	0.9%	0	-10	9	-21%	1.1	-5
Cc1cc(C)[n+](-c2ccc(Oc3ccccc3)c(S(=O)(=O)[O-])c2)[nH]1	2.1%	-2	-6	10	17%	1.9	3
C/C(=N/NC(=O)c1cccs1)c1c(C)[nH]n(-c2nc3ccccc3s2)c1=O	-1.9%	-2	?	-26	8%	-7.1	?
COC1OC(COC(=O)c2ccccc2)C(OC(=O)c2ccccc2)C1OC(=O)c1ccccc1 (centres undefined)	-0.1%	-3	1	18	-1%	-2.5	15
CN(C)c1ccc(CC(=O)N2CCCC(c3cc(C(=O)Nc4ccc(C(C)(C)C)cc4)no3)C2)cc1 (centres undefined)	0.6%	2	?	nt	nt	4.5	?
CCCOc1ccc(N2C(=O)CC(N(Cc3ccc(OC)cc3)C(=S)Nc3ccccc3)C2=O)cc1 (centres undefined)	5.2%	-9	24	-3	-7%	-2.7	10
Cc1c(N=Cc2cccnc2)c(=O)n(-c2ccccc2)n1C	0.4%	-8	9	-10	14%	-2.3	8
CNc1nc2c(c(=O)n(C)c(=O)n2C)n1Cc1ccccc1	-0.3%	-1	19	6	18%	-0.2	8
COc1ccc2[nH]c3c(=O)n(N)c(=O)[nH]c3c2c1	-0.7%	-8	9	-3	3%	-2.6	0
COc1ccc(C(=O)OCC(=O)Nc2ccc(F)cc2F)cc1OC	1.2%	-12	2	22	2%	-1.5	0
OC(COc1ccc2cc(Br)ccc2c1)CN1CCCC1 (centres undefined)	-5.7%[38.3 µM]	-13	-2	-1	79µM*	6.8	-5
O=C(COc1ccccc1O)Nc1ccc(Cl)cc1	0.9%	-19	0	-14	-7%	-0.7	-6
O=C(CN1C(=O)NC2(CCCC2)C1=O)OCc1ccccc1	1.3%	-2	7	3	nt	-7.8	1
Cc1ccc(S(=O)(=O)Nc2nc(C)cc(NN)n2)cc1	-0.9%	8	-1	2	-15%	-2.0	5
C=CCNC(=O)C1CCN(S(=O)(=O)CC)CC1	-0.4%[38.3 µM]	-14	-3	5	13%	-1.7	19
COc1ccccc1Oc1ccc(S(=O)(=O)N2CCN(C)CC2)cc1	1.4%	-9	-14	2	16%	-2.2	15

An excerpt from above with just TRPV1 PAM, PINK1 expr mod and CtBP-E1A inh.
Molecule | TRPV1 PAM | PINK1 expr mod | CtBP-E1A inh
Cc1c(N=Cc2cccnc2)c(=O)n(-c2ccccc2)n1C | -10 | 0.4% | 8
CNc1nc2c(c(=O)n(C)c(=O)n2C)n1Cc1ccccc1 | 6 | -0.3% | 8
COc1ccc2[nH]c3c(=O)n(N)c(=O)[nH]c3c2c1 | -3 | -0.7% | 0

(cont.)
SMILES	PINK1 expr mod	D2 potentiator	Six1-Eya2 inh	TRPV1 PAM	Sfp inh	D2 agonist	CtBP-E1A inh
CCn1c(N2CCN(C(=O)c3ccco3)CC2)nc2ccccc21	1.4%	0	2	-10	21%	4.5	3
Cc1nn(Cc2ccccc2)c(C)c1C(=O)NCCN1C(=O)S/C(=C\c2ccccc2)C1=O	?	-8	-12	-2	-14%	-4.1	13
COc1cc(C(=O)N2CCN(S(=O)(=O)c3ccc(C(C)C)cc3)CC2)ccc1OCC(=O)N1CCOCC1	2.4%	1	0	nt	nt	-0.3	-1
CC(C)c1ccc(CN2CCC2(C)C(=O)Nc2cnc3ccccc3c2)cc1 (centres undefined)	8.3%	-16	0	nt	nt	-2.0	2
Cc1ccc(C(=O)N2C3=C(CCCC3)C(=O)NC23CCCCC3)cc1	0.9%	-38	-5	-17	1%	-4.2	-4
COC(=O)c1ccccc1NCC(=O)c1ccc(OC)cc1	6.5%	-4	10	-13	5%	-9.7	6
CC(O)c1nc2ccccc2n1CC(=O)N1CCN(c2ccccc2)CC1 (centres undefined)	1.2%	-25	0	-3	-1%	-8.3	2
CC1CC(NC2=NCCS2)CC(C)(C)C1 (centres undefined)	0.5%	-7	-11	4	-3%	-8.0	-21
Cc1cc(Cl)c2oc(C(=O)NCCN3CCOC3=O)c(C)c2c1	0.2%	-14	-3	-3	4%	0.7	1
O=C(CSc1ncn[nH]1)NC1CC2CCC1C2 (centres undefined)	2.6%	-7	10	-4	12%	-2.2	1
CC1(C)NC(C)(C)/C(=C\c2cccs2)C(=O)C1=O	0.4%	-6	3	-4	11%	-0.6	-13
CC[N+](CC)(CC)C/C=C/CN1CCCCC1	0.9%	-12	2	0	0%	-1.3	-17
O=C(N/N=C/c1ccc(O)c(Br)c1)c1cc2c(ccc3ccccc32)o1	?	-13	-4	-23	-3%	-0.3	-7
Cc1ccc(C(=O)OC(C)C(=O)Nc2ccc(S(N)(=O)=O)cc2)cc1S(=O)(=O)N1CCOCC1 (centres undefined)	1.8%	-16	-3	-14	nt	-3.1	4
COCCn1nnnc1C(c1ccccc1)N1CCN(Cc2ccc3c(c2)OCO3)CC1 (centres undefined)	3.7%	-2	-2	-10	6%	-5.2	7

Assay outcomes deposited in PubChem BioAssay by National Center for Advancing Translational Sciences (NCATS).
